KCNQ2 block = KCNQ2 potassium channel inhibitors, primary screen, cell-based, CHO-K1, FluxOR thallium flux, B-score (AID 2156); O88943; 20 min; hits give low values; only compounds with negative scores are shown here; some inactives read as strong as hits; B-score at 10 µM; 1.1% of 310,000 active;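 active = fluorescence ratio B-score at most minus 3 library SDs, with starting brightness B-score within 2 library SDs, cut at about -5.5 in these data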
Target sequence (O88943 whole entry, looked up): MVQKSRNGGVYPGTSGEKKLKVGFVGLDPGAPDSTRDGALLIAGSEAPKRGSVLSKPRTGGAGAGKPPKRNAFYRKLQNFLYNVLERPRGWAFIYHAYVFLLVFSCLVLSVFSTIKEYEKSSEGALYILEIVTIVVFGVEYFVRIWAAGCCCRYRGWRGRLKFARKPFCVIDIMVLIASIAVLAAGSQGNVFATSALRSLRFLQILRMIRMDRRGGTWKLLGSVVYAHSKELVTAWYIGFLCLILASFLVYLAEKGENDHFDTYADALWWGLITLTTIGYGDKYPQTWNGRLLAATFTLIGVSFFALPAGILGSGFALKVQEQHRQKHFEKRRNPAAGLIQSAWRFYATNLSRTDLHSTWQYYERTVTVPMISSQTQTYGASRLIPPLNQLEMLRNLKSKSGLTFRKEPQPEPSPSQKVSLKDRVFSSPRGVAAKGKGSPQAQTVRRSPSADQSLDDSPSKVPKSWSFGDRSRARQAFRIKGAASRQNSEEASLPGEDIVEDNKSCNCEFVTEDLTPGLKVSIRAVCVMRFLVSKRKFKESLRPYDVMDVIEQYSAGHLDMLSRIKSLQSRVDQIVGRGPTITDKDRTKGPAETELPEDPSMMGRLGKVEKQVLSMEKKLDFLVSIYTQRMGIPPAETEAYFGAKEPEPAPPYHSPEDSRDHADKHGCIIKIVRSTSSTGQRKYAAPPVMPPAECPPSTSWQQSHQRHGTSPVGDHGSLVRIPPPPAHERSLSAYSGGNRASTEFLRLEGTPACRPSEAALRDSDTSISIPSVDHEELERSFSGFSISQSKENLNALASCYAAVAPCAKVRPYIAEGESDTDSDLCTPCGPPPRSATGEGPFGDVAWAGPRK
KCNQ2 block baseline = further read-out of KCNQ2 block, marked with its call; B-score; measured here: initial fluorescence intensity artifact check;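 brightness before thallium and not channel activity; 0 = typical well and far values either way flag optical interference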
* = called active by the depositor; i = inactive.

canonical_smiles | KCNQ2 block baseline | KCNQ2 block
Oc1ccc(Cl)cc1CNc1cnc2ccccc2c1 | -1.15 | i
O=C(Nc1nnc(-c2ccccc2F)s1)c1ccccc1F | 4.62 | i
COc1cc(CN2CCCC(C(=O)Nc3ccccc3Oc3cccnc3)C2)ccc1F (stereo not given) | 3.99 | i
O=C(NCCCc1ccccc1)[C@@H]1Cc2ccccc2CN1 | 0.56 | i
COc1ccc2c(c1)C=C(CN1CCC(CO)(CCc3ccccc3)CC1)CO2 | 0.9 | i
CCC(C)NC(=O)CSc1ccc(Cl)cc1 (stereo not given) | -0.04 | i
O=C(c1cccs1)C1CCCN(Cc2nc(Cc3ccccc3F)no2)C1 (stereo not given) | 2.6 | i
Cc1ccsc1C(=O)OCC(=O)NCCC1=CCCCC1 | -0.05 | i
Cc1c(C#N)c2ccccc2n1CC(=O)N1CCc2ccccc2C1 | 2.89 | i
CCCCn1c(SCC(=O)N2CCOCC2)nnc1-c1cccs1 | 2.09 | i

Next part
canonical_smiles | KCNQ2 block baseline | KCNQ2 block
CCOC(=O)N1CCC(N2C(=O)c3ccccc3C2Nc2ccc(S(=O)(=O)N(CC)CC)cc2)CC1 (stereo not given) | 0.18 | i
CC1(C)CN(c2cccc(-c3ccnc4ncnn34)c2)C1=O | -0.77 | i
Clc1ccccc1N1CCN(c2ncnc3nc[nH]c23)CC1 | -0.64 | i
CC(C)CNC(=S)NC1CC2CCCC(C1)N2C1CCCCC1 (stereo not given) | 0.44 | i
CCOc1ccccc1NC(=O)C(OC(=O)c1ccccc1NS(=O)(=O)c1cccs1)c1ccccc1 (stereo not given) | -1.03 | i
Cc1cc(C(=O)Nc2ccon2)ccc1[N+](=O)[O-] | 0.14 | i
CCC(C(=O)NCCN1CCOCC1)n1nc(C)n2c(cc3sccc32)c1=O (stereo not given) | -0.6 | i
O=C(Nc1ccc(F)cc1)c1cc(S(=O)(=O)Nc2ccc(F)cc2)cs1 | 0.8 | i
O=Cc1ccc(Oc2nc(Cl)ncc2F)cc1 | -0.92 | i
COc1ccc2c(c1)O[C@H](c1ccc3c(c1)OCO3)[C@@H](OC(=O)N[C@H](C)C1CCCCC1)C2=O | -0.32 | i

Other compounds follow:
canonical_smiles | KCNQ2 block baseline | KCNQ2 block
O=C(O)CCn1c(C(=O)O)cc2sccc21 | 0.38 | i
Cc1ccccc1Cn1c(C(=O)OC(C)C)cc2c1ccn2C | -1.54 | i
O=S(=O)(Nc1ccc2cn[nH]c2c1)c1ccc(Cl)cc1 | -0.64 | i
COc1nc(C)nc(C)c1Oc1ccc(Cl)cc1Cl | 0.01 | i
Cc1cccc(Cl)c1OCCCn1ccnc1 | 2.68 | i
O=C(Nc1ccccc1)C(=O)Nc1cccnc1 | 0.69 | i
C(=C\c1ccccc1)/CN1CCN(Cc2nc(Cc3ccccc3)no2)CC1 | 1.73 | i
Cc1nn(-c2ccccc2)c(Oc2ccccc2)c1C=O | -0.06 | i
CN1CCC(NC(=O)c2ccncc2)CC1 | 1.89 | i
Cc1[nH]c2ccccc2c1-c1csc(NC(=O)CSCC(=O)O)n1 | 0.28 | i

Going on with the list.
canonical_smiles | KCNQ2 block baseline | KCNQ2 block
COC(=O)c1sccc1NC(=O)c1ccc(Br)s1 | 2.5 | i
O=C1C2CCCN2C(=O)N1CCN1CCN(c2ccccc2)CC1 (stereo not given) | 0.96 | i
CC1=NN(c2nc(-c3ccc(Cl)cc3)cs2)C(=O)C1 | -1 | i
O=[N+]([O-])c1c(NCc2ccco2)ccc2nonc12 | 0.83 | i
COc1cc(CNc2ccc3[nH]c(=O)[nH]c3c2)ccc1OCc1ccccc1F | 0.94 | i
O=C(CN(Cc1ccco1)C(=O)c1ccc(Cl)cc1)Nc1ccc(Cl)c(Cl)c1 | -0.27 | i
O=C(NCc1cccc(C(F)(F)F)c1)C1CC2Cn3c(nc4ccccc43)C2N1Cc1ccccc1 (stereo not given) | -1.35 | i
COC(=O)c1ccc(C(=O)OC)c(NC(=O)CN2CCN(c3ccccc3)CC2)c1 | -1.56 | i
COc1ccc(C2C(C(C)=O)=C(C)N=c3s/c(=C\c4ccc5c(c4)OCO5)c(=O)n32)c(OC)c1 (stereo not given) | 2.69 | i
Cc1onc(C(=O)NC2CCCCC2)c1[N+](=O)[O-] | -1.4 | i

Additional structures follow.
canonical_smiles | KCNQ2 block baseline | KCNQ2 block
COc1ccc(NC(=O)c2sc3ncnc(N4CCN(c5ccccn5)CC4)c3c2C)cc1Cl | -4.31 | i
COC(C(=O)Nc1ccc(C(N)=O)cc1)c1ccccc1 (stereo not given) | 0.07 | i
Cc1nc2ccc(NC(=S)NCCCO)cc2nc1C | -1.02 | i
O=C(Nc1ccccn1)c1cccnc1 | 0.92 | i
O=C(Nc1ccc2ccccc2c1)c1cccc([N+](=O)[O-])c1 | 0.63 | i
COc1cccc2cc(C(=O)CC3(O)C(=O)N(Cc4ccccc4)c4ccccc43)c(=O)oc12 (stereo not given) | -1.34 | i
COc1ccc(CCC(C)NC(=O)CCc2ccccc2)c(OC)c1 (stereo not given) | 0.69 | i
Cn1c(=NC(=O)c2ccco2)sc2ccccc21 | 0.57 | i
O=C(/C=C/Sc1ccccc1)c1ccccc1 | -0.71 | i
COc1cccc(-c2onc3ccc(C(=O)/C=C/N(C)C)cc23)c1 | 1.82 | i

Continuation:
canonical_smiles | KCNQ2 block baseline | KCNQ2 block
CCOC(=O)C1=C(c2ccccc2)NC(N)=NC1c1ccc(OCc2ccc(C(=O)OC)cc2)cc1 (stereo not given) | 1.29 | i
COc1ccc(CCNC(=O)C(=O)NCC2OCCN2S(=O)(=O)c2ccc(OC)c(C)c2)cc1 (stereo not given) | -0.67 | i
CCOC(=O)c1nn(-c2cccc(OC)c2)c(-c2ccccc2)c1C(=O)c1ccccc1 | 1.11 | i
Cc1nc2ccc(S(=O)(=O)NCC(=O)N3CCc4ccccc43)cc2s1 | 0.09 | i
N#Cc1c2n(c(=O)[nH]c1=O)CCCCC2 | 0.15 | i
Cc1cc(N2CCN(C(=O)Nc3ccccc3C#N)CC2)c2ccccc2n1 | -0.7 | i
O=S(=O)(c1cccc(C(F)(F)F)c1)N1CCN(c2nnnn2-c2ccccc2)CC1 | -1.76 | i
CCOC(=O)c1sc(NC(=O)CCc2ccccc2)nc1C | 0.22 | i
Cc1nnc(NC(=O)CCN2C(=O)/C(=C\c3ccccc3)SC2=S)s1 | -1.33 | i
O=C(CNS(=O)(=O)c1ccccc1)N1CCN(c2ccccc2)CC1 | 1.68 | i

Other compounds.
canonical_smiles | KCNQ2 block baseline | KCNQ2 block
Cc1cccc2sc(N(CCCN(C)C)C(=O)c3cc4ccccc4oc3=O)nc12 | 0.05 | i
COc1ccc(/C=C2\CCc3ccccc3C2=O)cc1O | -1.91 | i
COc1ccccc1NC(=O)C(C)OC(=O)CN1C(=O)C2CC=CCC2C1=O (stereo not given) | 0.22 | i
Cc1ccc(Cl)cc1N(CC(=O)NC(C)c1ccccc1)S(C)(=O)=O (stereo not given) | -0.01 | i
O=C(NCC1CCCN1S(=O)(=O)c1cccs1)c1ccc(F)c(F)c1 (stereo not given) | 2.33 | i
O=C(NCC1CCCO1)c1onc(CSc2cccc(Cl)c2)c1C(=O)O (stereo not given) | 1.91 | i
CC(C)C(c1nnnn1Cc1ccccc1)N1CCN(Cc2ccco2)CC1 (stereo not given) | -0.6 | i
CCOc1ccccc1Nc1nc(-c2sc(NC(=O)c3ccco3)nc2C)cs1 | -2.67 | i
CCN(C(=O)CSc1ncnc2sc(C)c(C)c12)C1CCS(=O)(=O)C1 (stereo not given) | 2.31 | i
Cc1ccc(C(=O)N/C(=C\c2ccco2)C(=O)NC2CCS(=O)(=O)C2)cc1 (stereo not given) | 0.68 | i

(listing goes on)
canonical_smiles | KCNQ2 block baseline | KCNQ2 block
Cc1cccc(C(=O)Nc2nc(C)c(C(=O)Nc3ccc4c(c3)CCC4)s2)c1 | 0.76 | i
CCC1CCCCN1S(=O)(=O)Cc1ccccc1Cl (stereo not given) | -0.51 | i
COc1cc2nc(CN(C)Cc3ccc(OC)c(OC)c3OC)[nH]c(=O)c2cc1OC | 1.71 | i
O=C(NNc1ccc(C2CCCCC2)cc1)C(O)(c1ccccc1)c1cccs1 (stereo not given) | 0.9 | i
COc1cccc(-c2c(C(=O)N/N=C(\C)c3cccnc3)nnn2-c2nonc2N)c1 | -1.32 | i
COc1ccc(C)cc1NC(=O)C(C)N(c1ccc(C)cc1)S(C)(=O)=O (stereo not given) | 0.37 | i
C=CCOc1cccc(CNn2nnnc2N)c1 | 2.3 | i
CNC(=S)N(CCc1ccc(OC)c(OC)c1)C1CC(=O)N(c2ccccc2)C1=O (stereo not given) | -3.29 | i
COC(=O)c1ccc(S(=O)(=O)N2CCc3ccccc32)cc1 | 2.73 | i
COc1ccc(F)cc1C(=O)C1CCCN(Cc2ccc3c(c2)OCCO3)C1 (stereo not given) | 0.99 | i

Additional results
canonical_smiles | KCNQ2 block baseline | KCNQ2 block
CCOC(=O)Cn1c2ccccc2c2nc(C)sc21 | 1.69 | i
CC(=O)Nc1cccc(OCc2cnc(Cl)s2)c1 | -2.17 | i
CC(NC(=O)c1ccc([N+](=O)[O-])o1)C12CC3CC(CC(C3)C1)C2 (stereo not given) | 1.27 | i
Cc1cc(C)n2nc(SC(C)C(=O)NCc3ccco3)nc2n1 (stereo not given) | -2.1 | i
CCOC(=O)c1c(C)c(C(=O)NC2CCCCC2)c(C)n1CC | -0.27 | i
Cc1ccccc1OCC(=O)N1CCc2ccccc2C1 | -0.21 | i
COCCn1c(=S)[nH]c2ccc(N(C)C)cc2c1=O | 0.17 | i
C/C(N)=C(/C#N)C(=O)CSc1nc2ccccc2c(=O)n1-c1ccc(C)cc1 | -3.53 | i
COc1ccc2cc3cc(C(=O)NCc4ccco4)oc3nc2c1 | 0.05 | i
CN1CCN(C(=O)C2=C[C@@H](C3CCCCC3)C[C@@H](OCCCCO)O2)CC1 | 0.83 | i

(list continues)
canonical_smiles | KCNQ2 block baseline | KCNQ2 block
O=C(/C=C/c1ccc([N+](=O)[O-])cc1)c1cccnc1 | 0.48* | -9.94*
CN(C/C(O)=C(\C#N)c1ccccc1)C1CCCCC1 | 1.13 | i
CCOc1ccc(NC(=O)NCCCCc2ccccc2)cc1 | 1.25 | i
CCCCCn1c(SCc2ccncc2)nc2cc(C(=O)NCc3ccco3)ccc2c1=O | -0.64 | i
Cc1ncsc1C(=O)N1N=C2/C(=C/c3ccccc3)CCCC2C1c1ccccc1 (stereo not given) | 0.28 | i
O=C(NCc1n[nH]c(=S)n1-c1ccccc1)c1ccco1 | -0.32 | i
COc1ccc2nc(N3CCN(C(=O)c4ccc([N+](=O)[O-])o4)CC3)sc2c1 | 0.35 | i
COc1ccc(S(=O)(=O)N2CCC(C(=O)NC3CCCCC3)CC2)cc1OC | -1.16 | i
COc1ccccc1OCC(=O)Nc1nc(C)c(C)s1 | 1.2 | i
CCNc1nc(NC(C)(C)C)nc(SCC(N)=O)n1 | -0.94 | i

For reference, some entries already given.
canonical_smiles | KCNQ2 block baseline | KCNQ2 block
O=C(/C=C/c1ccc([N+](=O)[O-])cc1)c1cccnc1 | 0.48* | -9.94*
CN(C/C(O)=C(\C#N)c1ccccc1)C1CCCCC1 | 1.13 | i
CCOc1ccc(NC(=O)NCCCCc2ccccc2)cc1 | 1.25 | i
CCCCCn1c(SCc2ccncc2)nc2cc(C(=O)NCc3ccco3)ccc2c1=O | -0.64 | i

Record cards, from the list above.
Cc1ncsc1C(=O)N1N=C2/C(=C/c3ccccc3)CCCC2C1c1ccccc1 (stereo not given) in the list: KCNQ2 block baseline: 0.28; KCNQ2 block: i
COc1ccc2nc(N3CCN(C(=O)c4ccc([N+](=O)[O-])o4)CC3)sc2c1 in the list: KCNQ2 block baseline: 0.35; KCNQ2 block: i

(listing goes on)
canonical_smiles | KCNQ2 block baseline | KCNQ2 block
CSCCC(N=C(NS(=O)(=O)c1ccc(Br)cc1)c1ccccc1)C(=O)O (stereo not given) | -0.16 | i
CCOC(=O)CCCCC(=O)c1[nH]c(=O)[nH]c1CSc1nc(C)cc(=O)[nH]1 | -0.99 | i
CC(C)(C)NC(=O)C(c1ccncc1)N(Cc1ccc(F)cc1)C(=O)c1ccc(-c2ccccc2)[nH]1 (stereo not given) | 1.08 | i
CCOc1cc(C(=O)NCC(C)(C)CNC(=O)c2cc(OCC)c(OCC)c(OCC)c2)cc(OCC)c1OCC | -1.29 | i
C/C(=N\N(Cc1ccccc1)c1ccccc1)c1ccncc1 | -1.45 | i
CCOc1ccc2[nH]c(=O)c(CN(CCO)C(=O)c3ccc(F)cc3)cc2c1 | 1.55 | i
CCOC(=O)c1cc(OCC(=O)NC(C)C(C)C)cc(C(=O)OCC)c1 (stereo not given) | 0.23 | i
CCN(CC(=O)Nc1c(C(=O)OC)[nH]c2ccc(Cl)cc12)c1ccc2c(c1)OCO2 | 0.25 | i
COc1ccc(Nc2cc(C(=O)NCCCN3CCOCC3)c3ccccc3n2)cc1 | -0.55 | i
O=C(CSc1nnc(NC(=O)c2ccco2)s1)Nc1ccccc1F | -0.2 | i

(cont.)
canonical_smiles | KCNQ2 block baseline | KCNQ2 block
COc1ccc(N(CC(=O)N2CCc3ccccc32)S(=O)(=O)c2c(C)noc2C)cc1 | 0.51 | i
O=C(Cn1ccc(C(F)(F)F)n1)N=Nc1c(O)[nH]c2ccc(Br)cc12 | 1* | -9.29*
Cc1cnc(NC(=O)c2ccc3c(c2)C(=O)N(Cc2ccco2)C3=O)s1 | 0.43 | i
O=C(O)c1ccc(-c2nc3scc(-c4ccccc4)c3c(=O)[nH]2)cc1 | 2.83 | i
COc1ccc(N2CCN(C(=O)Cn3ncc4c([nH]c5ccccc54)c3=O)CC2)cc1 | -1.55 | i
COC(=O)Cc1ccc(OC(=O)CCS(=O)(=O)c2ccc(C)cc2)cc1 | -1.24 | i
CS(=O)(=O)c1ccc(-c2cccc(NC(=O)c3ccco3)c2)nn1 | -0.39 | i

Arranged by the number under KCNQ2 block baseline (largest number first): three from the list above.
canonical_smiles | KCNQ2 block baseline | KCNQ2 block
COc1ccc(N(CC(=O)N2CCc3ccccc32)S(=O)(=O)c2c(C)noc2C)cc1 | 0.51 | i
Cc1cnc(NC(=O)c2ccc3c(c2)C(=O)N(Cc2ccco2)C3=O)s1 | 0.43 | i
CS(=O)(=O)c1ccc(-c2cccc(NC(=O)c3ccco3)c2)nn1 | -0.39 | i

Screening results (PubChem)

These rows are one share of the data (hit frequency here may not be typical).
